# UUG fidelity: alters start codon recognition fidelity in yeast | S. cerevisiae UUG-firefly luciferase reporter, luminescence/redox ratio | actives 0.13% (n = 350,000) | activity score, % at 18.7 µM | AID 602363;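 active means replicate mean at a twofold rise or more, about +100% in these data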;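 further: firefly luciferase made from a UUG start codon reports start codon fidelity; reporter light over untreated wells divided by growth signal over untreated wells; some hits fall short of that in this replicate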
# Starred values were filed as active, the others as inactive.
SMILES,UUG fidelity
C[C@@H]1CN([C@H](C)CO)C(=O)c2c(c3ccccc3n2C)-c2ccccc2CO[C@H]1CN(C)S(C)(=O)=O,11
C[C@@H]1CN([C@H](C)CO)C(=O)c2cccc(NC(=O)c3ccncc3)c2O[C@@H]1CN(C)Cc1ccc(Oc2ccccc2)cc1,4
CN(C)CCCNC(=O)C[C@H]1CC[C@H]2[C@H](COc3ccc(NC(=O)C4CCC4)cc3C(=O)N2C)O1,-6
CNC(=O)C[C@@H]1CC[C@@H]2[C@H](COC[C@H](O)CN2C(=O)Nc2cccc(OC)c2)O1,-1
C[C@H](CO)N1C[C@H](C)[C@@H](CN(C)S(=O)(=O)c2cccs2)Oc2ccc(NS(C)(=O)=O)cc2C1=O,-15
C[C@H]1CN([C@@H](C)CO)C(=O)c2cc(NS(=O)(=O)c3ccc(Cl)cc3)ccc2O[C@H]1CN(C)Cc1ccc(C(=O)O)cc1,6
C[C@H](O)C#Cc1ccc([C@@H]2[C@@H](CO)N3CCCCN(C(=O)c4ccc5c(c4)OCO5)C[C@@H]23)cc1,4
COCC#Cc1ccc([C@@H]2[C@@H](CO)N3CCCCN(C(=O)CN(C)C)C[C@H]23)cc1,11
CC(C)NC(=O)N(C)C[C@@H]1Oc2ccc(NS(C)(=O)=O)cc2CC(=O)N([C@@H](C)CO)C[C@@H]1C,-8
CN1CCN(C(=O)C[C@@H]2CC[C@H]3[C@@H](COC[C@H](O)CN3Cc3cccc(Cl)c3)O2)CC1,-1
C[C@H]1CN([C@@H](C)CO)C(=O)c2cc(NS(=O)(=O)c3ccc(Cl)cc3)ccc2O[C@@H]1CN(C)C,-12
O=C(Nc1ccc(Cl)cc1)N1C[C@H]2[C@@H](c3ccccc31)[C@H](CO)N2C(=O)c1ccccn1,0
CC(=O)NC[C@@H]1[C@@H](c2ccc(-c3cccc(F)c3)cc2)[C@H](CO)N1C(C)=O,-3
CO[C@H]1CN(C)C(=O)c2ccc(NC(=O)Nc3ccccc3)cc2OC[C@@H](C)N(C(=O)Nc2c(C)noc2C)C[C@H]1C,9
COc1ccc(C#Cc2ccc3c(c2)[C@@H]2[C@@H](CCN2C(=O)C2CCCCC2)[C@@H](CO)N3)cc1,-4

# Overlap with the part before: five compounds; new compounds follow.
SMILES,UUG fidelity
C[C@H]1CN([C@@H](C)CO)C(=O)c2cc(NS(=O)(=O)c3ccc(Cl)cc3)ccc2O[C@@H]1CN(C)C,-12
O=C(Nc1ccc(Cl)cc1)N1C[C@H]2[C@@H](c3ccccc31)[C@H](CO)N2C(=O)c1ccccn1,0
CC(=O)NC[C@@H]1[C@@H](c2ccc(-c3cccc(F)c3)cc2)[C@H](CO)N1C(C)=O,-3
CO[C@H]1CN(C)C(=O)c2ccc(NC(=O)Nc3ccccc3)cc2OC[C@@H](C)N(C(=O)Nc2c(C)noc2C)C[C@H]1C,9
COc1ccc(C#Cc2ccc3c(c2)[C@@H]2[C@@H](CCN2C(=O)C2CCCCC2)[C@@H](CO)N3)cc1,-4
C[C@H](CO)N1C[C@H](C)[C@H](CN(C)C(=O)Nc2ccc(-c3cccs3)cc2)OCc2cn(nn2)CCCC1=O,10
COc1ccccc1NC(=O)N1C[C@H]2[C@@H](c3ccccc31)[C@@H](CO)N2Cc1ccccc1F,-16
COc1cccc(S(=O)(=O)N2CC[C@@H]3[C@H](CO)Nc4ccc(C#Cc5ccccc5)cc4[C@@H]32)c1,-3
Cc1cccc(-c2ccc([C@H]3[C@H]4CN(Cc5ccncc5)CCCCN4[C@H]3CO)cc2)c1,-3
C[C@@H]1CN([C@@H](C)CO)C(=O)c2cc(NC(=O)C3CCCCC3)ccc2O[C@@H]1CN(C)Cc1ccc(-c2ccccc2)cc1,20
COc1cccc(-c2ccc3c(c2)[C@@H]2[C@@H](CCN2C(=O)c2cccc(F)c2)[C@H](CO)N3)c1,-23
CO[C@H]1CN(C)C(=O)c2cc(NS(C)(=O)=O)ccc2OC[C@@H](C)N(CC2CCCCC2)C[C@@H]1C,4
C[C@H](O)C#Cc1ccc([C@@H]2[C@H]3CN(C(=O)c4cccc(F)c4)CCCCN3[C@H]2CO)cc1,9
COCC(=O)N1[C@H](C(=O)N2CCCCC2)[C@@H](CO)[C@@H]2Cn3c(ccc(C4=CCCC4)c3=O)[C@@H]21,22
CCC(=O)N(C)C[C@@H]1[C@@H](c2ccc(C3=CCCCC3)cc2)[C@H](CO)N1C(=O)CC,3
C[C@H](CO)N1C[C@H](C)[C@@H](CN(C)Cc2ccc(C(F)(F)F)cc2)Oc2ccc(NS(=O)(=O)c3ccccc3)cc2C1=O,23
C[C@@H]1CN([C@@H](C)CO)C(=O)c2cc(NS(=O)(=O)c3cccs3)ccc2O[C@@H]1CN(C)Cc1ccc(Oc2ccccc2)cc1,11
COCC(=O)NC[C@H]1[C@H](c2ccccc2)[C@@H](CO)N1C(=O)c1ccccc1,-10
COc1ccc(CN(C)C[C@@H]2Oc3ccc(NC(=O)NC4CCCCC4)cc3C(=O)N([C@H](C)CO)C[C@@H]2C)cc1,14
OC[C@@H]1[C@@H](c2ccc(-c3ccc(F)cc3)cc2)[C@@H]2CN(CCC(F)(F)F)CCCCN12,9
CCNC(=O)C[C@@H]1CC[C@H]2[C@H](COc3ccc(NC(=O)c4ccc(F)c(F)c4)cc3C(=O)N2C)O1,-7
CO[C@@H]1CN(C)C(=O)c2ccc(NC(=O)C3CC3)cc2OC[C@H](C)NC[C@@H]1C,5
C/C=C/c1ccc([C@@H]2[C@H](CO)N3CCCCN(S(=O)(=O)c4ccccc4)C[C@@H]23)cc1,-6
Nc1cccc2c(O)cc(S(=O)(=O)O)cc12,-14
Cc1noc(C)c1S(=O)(=O)Nc1ccc2c(c1)C(=O)N([C@H](C)CO)C[C@@H](C)[C@H](CN(C)Cc1ccc(C(=O)Nc3ccccc3N)cc1)O2,0
CN(C)CCCNC(=O)C[C@H]1CC[C@@H]2[C@H](COC[C@H](O)CN2Cc2cc(F)cc(F)c2)O1,-1
COc1ccc(C#Cc2ccc([C@@H]3[C@@H](CO)N4CCCCN(C(=O)Nc5ccc(F)cc5)C[C@@H]34)cc2)cc1,10
C[C@@H](O)C#Cc1ccc([C@H]2[C@H](CO)N3CCCCN(C(=O)c4ccncc4)C[C@@H]23)cc1,-4
C[C@H]1CN([C@@H](C)CO)C(=O)c2cccc(NC(=O)C3CCCCC3)c2O[C@@H]1CN(C)Cc1ccc(Cl)c(Cl)c1,-3
Cc1cc(C(=O)Nc2cccc3c2O[C@H](CN(C)C(=O)Nc2ccc4c(c2)OCO4)[C@@H](C)CN([C@H](C)CO)C3=O)n(C)n1,-8
O=C(c1cccc(F)c1)N1C[C@@H]2[C@H](c3ccccc31)[C@H](CO)N2Cc1cocn1,41
C[C@H]1CN([C@@H](C)CO)C(=O)c2cc(NS(C)(=O)=O)ccc2O[C@H]1CN(C)Cc1ccc(-c2ccccc2)cc1,7
CCC(=O)N1[C@H](CNC(=O)CN(C)C)[C@@H](c2ccc(C3=CCCC3)cc2)[C@@H]1CO,6
C[C@H](CO)N1C[C@H](C)[C@H](CN(C)Cc2ccccc2C(=O)O)OCc2cn(nn2)CCCC1=O,9
C[C@H]1CN([C@@H](C)CO)C(=O)c2cccc(NC(=O)Nc3ccc(F)cc3)c2O[C@H]1CN(C)Cc1ccc(C(=O)O)cc1,-5
Cc1ccccc1NC(=O)Nc1ccc2c(c1)C(=O)N(C)[C@H]1CC[C@@H](CC(=O)NCC3CC3)O[C@@H]1CO2,14
Cc1noc(C)c1NC(=O)Nc1ccc2c(c1)C(=O)N([C@@H](C)CO)C[C@H](C)[C@H](CN(C)S(C)(=O)=O)O2,0
CCC(=O)NC[C@H]1[C@@H](c2ccc(C3=CCCC3)cc2)[C@@H](CO)N1C(=O)C1CC1,-11
O=C(C1CCC1)N1C[C@H]2[C@@H](c3ccccc31)[C@H](CO)N2C(=O)Cc1ccccn1,130*
COc1ccc(-c2ccc3c(c2)[C@@H]2[C@@H](CCN2S(=O)(=O)c2ccccc2C)[C@@H](CO)N3C)cc1,-1
Cc1ccc(-c2ccc3c(c2)O[C@@H](CN(C)CC2CCCC2)[C@H](C)CN([C@@H](C)CO)S3(=O)=O)cc1,6
CO[C@@H]1CN(C)C(=O)c2cc(NC(=O)NC3CCCCC3)ccc2OC[C@H](C)N(CC2CCOCC2)C[C@H]1C,-8
CCCN1C[C@@H](C)[C@@H](OC)CN(C)C(=O)c2ccc(NC(=O)C3CC3)cc2OC[C@@H]1C,7
Cc1ccccc1-c1ccc([C@H]2[C@@H](CO)N3CCCCN(C(=O)Nc4cccc(F)c4)C[C@@H]23)cc1,12
C[C@@H]1CN([C@H](C)CO)C(=O)CCCn2nncc2CO[C@H]1CN(C)C(=O)Nc1cccc(C(F)(F)F)c1,14
C[C@H](CO)N1C[C@H](C)[C@H](CN(C)S(=O)(=O)c2cn(C)cn2)Oc2ccc(NS(C)(=O)=O)cc2C1=O,-15
COc1ccccc1NC(=O)N1CCCCN2[C@H](C1)[C@@H](c1ccc(C#CC3CCCC3)cc1)[C@@H]2CO,0
CCCNC(=O)C[C@@H]1CC[C@@H]2[C@H](COc3ccc(NC(=O)NC(C)C)cc3C(=O)N2C)O1,-6
C[C@@H]1CN([C@@H](C)CO)C(=O)c2cc(NS(=O)(=O)c3cccs3)ccc2O[C@H]1CN(C)Cc1ccc2c(c1)OCO2,-6
COc1ccc(C#Cc2ccc([C@H]3[C@H]4CN(Cc5ccncc5)CCCCN4[C@H]3CO)cc2)cc1,-14
CO[C@H]1CN(C)C(=O)c2cc(NC(=O)c3ccccc3)ccc2OC[C@H](C)N(C(C)=O)C[C@@H]1C,-3
COc1ccc(-c2ccc3c(c2)[C@@H]2[C@@H](CCN2C(=O)C2CC2)[C@H](CO)N3C)cc1,-3
COCC(=O)N1C[C@H](C)[C@@H](OC)CN(C)C(=O)c2cc(NC(=O)c3ccc(F)cc3)ccc2OC[C@@H]1C,14
O=C(NC[C@@H]1[C@H](c2ccccc2)[C@H](CO)N1CC1CC1)c1cccnc1,10
Cc1ccccc1-c1ccc([C@H]2[C@H]3CN(S(=O)(=O)c4cn(C)cn4)CCCCN3[C@H]2CO)cc1,-8
C[C@H]1CN([C@@H](C)CO)C(=O)c2cc(NC(=O)C3CCCCC3)ccc2O[C@@H]1CN(C)Cc1ccc(C(=O)O)cc1,-5
CCCC#Cc1ccc([C@@H]2[C@H]3CN(S(=O)(=O)Cc4ccccc4)CCCCN3[C@H]2CO)cc1,10
CCN(C[C@H]1[C@H](c2ccccc2)[C@@H](CO)N1S(C)(=O)=O)C(=O)C1CCC1,-5
C[C@H]1CN([C@@H](C)CO)C(=O)c2cc(NC(=O)Nc3cccc4ccccc34)ccc2O[C@H]1CN(C)Cc1ccc(-c2ccccc2)cc1,-4
C[C@H]1CN([C@@H](C)CO)C(=O)Cc2cc(NC(=O)Nc3ccc(F)cc3)ccc2O[C@@H]1CN(C)Cc1ccncc1,-15
CO[C@H]1CN(C)C(=O)c2cc(NC(=O)C3CC3)ccc2OC[C@@H](C)N(C(C)=O)C[C@@H]1C,1
CO[C@@H]1CN(C)C(=O)c2ccc(NS(=O)(=O)c3cn(C)cn3)cc2OC[C@@H](C)N(Cc2cccc(F)c2)C[C@H]1C,0
CS(=O)(=O)N(CC1CCC1)C[C@@H]1N[C@H](CO)[C@@H]1c1ccccc1,-13
O=C(C[C@@H]1CC[C@H]2[C@@H](COC[C@@H](O)CN2Cc2ccc(Cl)cc2)O1)Nc1nccs1,-7
COc1cccc(-c2ccc([C@H]3[C@@H](CO)N4CCCCN(C(=O)NC(C)C)C[C@H]34)cc2)c1,-16

# Arranged by value in UUG fidelity (rising): some entries from above.
SMILES,UUG fidelity
CCN(C[C@H]1[C@H](c2ccccc2)[C@@H](CO)N1S(C)(=O)=O)C(=O)C1CCC1,-5
CO[C@@H]1CN(C)C(=O)c2ccc(NS(=O)(=O)c3cn(C)cn3)cc2OC[C@@H](C)N(Cc2cccc(F)c2)C[C@H]1C,0
COCC(=O)N1C[C@H](C)[C@@H](OC)CN(C)C(=O)c2cc(NC(=O)c3ccc(F)cc3)ccc2OC[C@@H]1C,14

# New compounds follow
SMILES,UUG fidelity
C[C@@H]1CN([C@@H](C)CO)C(=O)c2cc(NC(=O)CCN3CCOCC3)ccc2O[C@H]1CN(C)S(=O)(=O)c1cn(C)cn1,2
C[C@H](CO)N1C[C@H](C)[C@@H](CN(C)S(=O)(=O)c2cccs2)Oc2ccc(NC(=O)Nc3cccc4ccccc34)cc2C1=O,1
O=C(C1CCCC1)N1CCCCN2[C@H](CO)[C@H](c3ccc(-c4ccncc4)cc3)[C@H]2C1,1
C[C@H](CO)N1C[C@H](C)[C@@H](CN(C)C(=O)Nc2ccccc2)OCc2ccccc2-c2c(n(C)c3ccccc23)C1=O,21
Cc1ccc(S(=O)(=O)N(C)C[C@H]2Oc3ccc(NC(=O)c4ccncc4)cc3CC(=O)N([C@@H](C)CO)C[C@H]2C)cc1,-4
CC(=O)N1[C@@H]2c3ccc(-c4ccncc4)c(=O)n3C[C@@H]2[C@@H](CO)[C@@H]1C(=O)NCc1ccccc1Cl,-7
C[C@@H]1CN([C@@H](C)CO)C(=O)c2cccc(NC(=O)C3CCCCC3)c2O[C@@H]1CN(C)S(=O)(=O)c1ccccc1,12
Cc1cc(C(=O)Nc2cccc3c2O[C@H](CN(C)C(=O)Nc2ccccc2)[C@@H](C)CN([C@@H](C)CO)C3=O)n(C)n1,-7
CC(=O)N1CCCCN2[C@@H](CO)[C@@H](c3ccc(-c4cccc(C)c4)cc3)[C@@H]2C1,-4
C[C@@H]1CN([C@H](C)CO)C(=O)c2cccc(NS(=O)(=O)c3ccc(Cl)cc3)c2O[C@@H]1CN(C)C,-4

# These rows are one share of the data; the hit share may differ from the screen's.
